Screening results from PubChem BioAssay.
NS1 function inh: qHTS Assay for Inhibitors of Influenza NS1 Protein Function; S. cerevisiae slowed by influenza A NS1, growth recovery by OD600; Potency, µM (titrated, usually from 46.1 µM), inactives show top-dose activity, positive = more growth; hit rate 0.4% among 270,000; AID 2326, 2010; note: actives are rising curves; nearly all actives have a fitted effect of over 50% in size
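In this qHTS, NS1 from influenza A is expressed in budding yeast, where it slows growth. Cells are switched from glucose to 2% galactose medium (pH 6.0, -URA), treated with compound, and growth recovery is read at OD600.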
Cruzain inh noDet: qHTS Assay for Promiscuous and Specific Inhibitors of Cruzain (without detergent) | Cruzipain (Trypanosoma cruzi), P25779 | purified cruzain, Z-FR-AMC fluorescence, no detergent | Potency, µM, for the others: max response, negative = inhibition, usual class: inhibitors | hit rate 2.3% among 200,000 | AID 1476, 2009; active = well fitted curve in the direction sought with a large enough effect; inconclusive = small, poorly fitted or top-dose-only effect, or another doubt; inactive = no such curve, though single readings can be large; an effect the other way counts as inactive or inconclusive;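 note: plate controls were enzyme without inhibitor for no effect and buffer without enzyme for full effect; nearly all actives have a fitted effect of over 40% in size; top concentration of the series not given in the record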
Target sequence (P25779 123-467 limits assumed): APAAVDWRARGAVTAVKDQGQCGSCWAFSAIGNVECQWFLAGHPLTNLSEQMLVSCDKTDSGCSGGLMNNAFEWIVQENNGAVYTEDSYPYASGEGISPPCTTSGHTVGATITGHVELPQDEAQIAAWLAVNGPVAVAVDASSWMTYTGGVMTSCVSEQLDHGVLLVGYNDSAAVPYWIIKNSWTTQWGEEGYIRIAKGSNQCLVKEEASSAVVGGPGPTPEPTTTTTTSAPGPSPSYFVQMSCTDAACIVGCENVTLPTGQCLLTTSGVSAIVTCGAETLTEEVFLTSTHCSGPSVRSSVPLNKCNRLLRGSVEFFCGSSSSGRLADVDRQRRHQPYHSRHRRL
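Detergent-free condition (0.00005% Triton X-100) in acetate buffer pH 5.5 with DTT. 1.5 nM enzyme and compound were pre-mixed 15 min, then 2 uM Z-FR-AMC substrate added; reaction progress from fluorescence change between first and third reads (60 s).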
2A StopGo: High Throughput Screening for Foot and Mouth Disease Virus Antivirals. hit rate 1.2% among 410,000. human cells with a luciferase reporter of 2A StopGo recoding; control for the full effect not named in the record. Potency, µM (highest dose often 57.9 µM), for inactives: at the top dose signal change, negative = less light. AID 1159524, 2015; active = well fitted falling curve with a large enough effect; inconclusive = small, poorly fitted or top-dose-only effect; inactive = no such curve, though single readings can be large or run the other way; tested in HEK293T cells; note: % is set by controls: 0 for no effect and ±100 for the full control effect; nearly all actives have a fitted effect of over 45% in size; luciferase light after 4 h
RE007 growth inh: qHTS Assay for Inhibitors of the HIV-1 protein Vpr. S. pombe RE007 Vpr strain, BacTiter-Glo ATP luminescence, 24 h; control for the full effect not named in the record. Potency, µM (series often up to 92.2 µM), without a hit: top-dose activity change, negative = less growth. hit rate 0.21% among 360,000. AID 651644, 2012; active = well fitted falling curve with a large enough effect; inconclusive = small, poorly fitted or top-dose-only effect; inactive = no such curve, though single readings can be large or run the other way;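 note: % is set by controls: 0 for no effect and ±100 for the full control effect; nearly all actives have a fitted effect of over 50% in size; the assay follows cell death caused by Vpr and the record does not say whether a fall means rescue or toxicity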
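Fission yeast strain RE007, carrying one chromosomally integrated HIV-1 vpr copy, was seeded at OD 0.01 in PMG+AL medium with 23 nL pinned compound. After 24 h at 30 °C and 99% humidity, viability was read by BacTiter-Glo luminescence.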
Marburg entry inh: qHTS for inhibitors of binding or entry into cells for Marburg Virus; AID 540276, 2011; hit rate 1.8% among 300,000; Marburg virus pseudotyped entry inhibition, cell reporter; control for the full effect not named in the record; about a third of the inactives were read at about 46 µM; Potency, µM (doses to about 37.8 µM), inactives show at the highest dose activity change, negative = inhibition, most hits filed as inhibitors; active = well fitted inhibition curve with a large enough effect; inconclusive = small, poorly fitted or top-dose-only effect, or effect the other way; inactive = flat fitted curve, though single readings scatter; tested in HEK293 cells; about a fifth of its hits are not listed in these tables; note: % is set by controls: 0 for no effect and ±100 for the full control effect; luciferase read-out
Cruzain Triton: qHTS Assay for Promiscuous and Specific Inhibitors of Cruzain (with detergent). hit rate 0.43% among 200,000. purified cruzain, Z-FR-AMC fluorescence, 0.01% Triton. Potency, µM, without a hit: max response, negative = inhibition, hits mostly inhibitors. Cruzipain (Trypanosoma cruzi), P25779. AID 1478, 2009; active = well fitted curve in the direction sought with a large enough effect; inconclusive = small, poorly fitted or top-dose-only effect, or another doubt; inactive = no such curve, though single readings can be large; an effect the other way counts as inactive or inconclusive;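 note: plate controls were neutral wells for no effect and buffer without enzyme for full effect; nearly all actives have a fitted effect of over 40% in size; top concentration of the series not given in the record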
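Detergent-containing arm of a paired screen for aggregation-based inhibition: 0.01% Triton X-100 present. Cruzain at 1.5 nM cleaved 2 uM Z-FR-AMC at pH 5.5 with 5 mM DTT; AMC fluorescence gain over 60 s measured activity.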
SARS PLpro yeast: qHTS of Yeast-based Assay for SARS-CoV PLP; S. cerevisiae expressing SARS-CoV PLpro, growth rescue; control for the full effect not named in the record; hit rate 0.19% among 330,000; AID 485353, 2010; Potency, µM (series often up to 32.9 µM), inactives show at the highest dose activity, positive = growth rescue; note: 0% is about no effect; nearly all actives have a fitted effect of over 55% in size; growth read by luminescence after 48 h
LASV entry inh: qHTS for Inhibitors of binding or entry into cells for Lassa Virus | Potency, µM (top dose mostly 37.9 µM), without a hit: top-dose activity change, negative = inhibition, hits mostly inhibitors | AID 540256, 2011 | hit rate 1.2% among 300,000 | Lassa virus pseudotype entry inhibition, cell reporter; control for the full effect not named in the record; active means well fitted inhibition curve with a large enough effect; inconclusive means small, poorly fitted or top-dose-only effect, or effect the other way; inactive means flat fitted curve, though single readings scatter; tested in HEK293 cells; note: % is set by controls: 0 for no effect and ±100 for the full control effect; nearly all actives have a fitted effect of over 50% in size; luciferase read-out
An asterisk follows results filed as active; ? = inconclusive; · = not tested or not shown; & = joins results of further samples; [ ] = another dose, or the depositor's remark. Unless noted, calls come from the whole dose curve; as a rule, active means well fitted rising curve with a large enough effect; inconclusive means small, poorly fitted or top-dose-only effect; inactive means no such curve, though single readings can be large or run the other way. Potency is the fitted concentration of half-maximal effect.

Each structure is followed by: NS1 function inh | Cruzain inh noDet | 2A StopGo | RE007 growth inh | Marburg entry inh | Cruzain Triton | SARS PLpro yeast | LASV entry inh
> Cc1cn(-c2cc(NC(=O)c3ccc(C)c(NC(=O)c4cccc(-c5cn[nH]c(=O)c5)c4)c3)cc(C(F)(F)F)c2)cn1
→ 1% | · | -10% | -3% | · | · | -1% | ·
> Cc1ccc(N2CC(C(=O)Nc3nnc(SCCC4OCCO4)s3)CC2=O)cc1C (stereo unspecified)
→ 4% | · | -21% | 0% | -15% | · | 0% | -10%
> COc1ccc(-c2c(C)nn3c(N4CCCCCC4)cc(C)nc23)cc1OC
→ -8% | · | -43% | -13% | ? | · | -2% | -12%[46.1 µM]
> COCCN=c1scc(-c2ccc3c(c2)NC(=O)CO3)n1/N=C(\C)c1ccc(O)cc1
→ 10% | · | 0% | 1% | ? | · | 1% | ?
> O=C(CSc1nnc(-c2cc3ccccc3cc2O)n1Cc1ccco1)c1ccc(F)cc1
→ 8.9µM* | ? | -14% | 3% | ? | -4.5% | 0% | 23µM*
> O=S(=O)(Nc1ccc(Oc2ncccn2)c(Cl)c1)c1ccc(Cl)cc1
→ 9% | -11% | 58%[activator] | 24% | 1% | 1.4% | 7% | -3%
> COc1cccc(N2C(=O)NC(=O)/C(=C\c3ccc([N+](=O)[O-])s3)C2=O)c1
→ · | · | -28% | ? | ? | · | -1% | -24%
> Cc1ccc(NC(=O)CN2C(=O)NC(C)(c3ccc(Cl)cc3)C2=O)cc1S(=O)(=O)N1CCOCC1 (stereo unspecified)
→ 8% | 15% | ? | 0% | ? | -5.4% | -3% | -14%
> COc1ccc(CN2C(=O)c3oc4ccc(F)cc4c(=O)c3C2c2ccc(O)cc2)cc1 (stereo unspecified)
→ · | 2% | 3% | · | 2%[46.1 µM] | -0.6% | · | 3%[46.1 µM]
> CCCCn1ccnc1C
→ 1% | · | 9% | 2% | 1%[46.1 µM] | · | 1% | -14%
> COc1cc(NS(=O)(=O)c2ccc3c(c2)CCN3S(C)(=O)=O)cc(OC)c1
→ · | 4% | 8% | · | · | -4.6% | · | -21%[46.1 µM]
> Cn1cccc1C(=O)NCC1COc2ccccc2O1 (stereo unspecified)
→ · | · | 12% | -7% | -25% | · | -2% | 26%
> c1cncc(-c2nnc(-c3cccnc3)nn2)c1
→ -104% | -15% | ? | 22µM* | ? | -2.2% | -27% | ?
> CC(C)c1cc(C(=O)Nc2cc(Cl)ccc2O)no1
→ -100% | -16% | 44%[activator] | -1% | ? | 1.5% | ? | ?
> Cc1c(C(=O)Nc2cccc(C(F)(F)F)c2)oc2ccc(S(=O)(=O)N3CCOCC3)cc12
→ -8% | ? | ? | 8% | -29% | -12% | 0% | -6%
> Clc1cccc(CSc2nnc(-c3c[nH]c4ccccc34)o2)c1
→ 2% | -3% | 5% | -28% | 20% | -7.3% | -10% | -13%
> OC(CNCC(c1ccc(Cl)cc1Cl)c1c[nH]c2ccccc12)c1ccccc1 (stereo unspecified)
→ · | · | ? | -26% | 7.9µM* | · | -1% | ?
> C=CCN1CCN(C(=O)c2c(-c3ccccc3)noc2C)CC1
→ 8% | · | -14% | 18% | -2%[46.1 µM] | · | 6% | -11%[46.1 µM]
> Cc1cccc(-n2ncc3c(N(CCO)CCO)ncnc32)c1
→ -7% | -2% | 34%[activator] | 7% | · | -2.1% | 4% | ·
> Cn1ncc2c(NCc3ccc(Cl)cc3)ncnc21
→ · | -9% | -21% | · | · | -0.5% | · | 13%[46.1 µM]
> CCOC(=O)CN(c1ccccc1C)S(=O)(=O)c1ccc(Cl)cc1
→ -11% | · | 10% | 8% | 5%[46.1 µM] | · | -5% | 0%[46.1 µM]
> Cc1c(C(=O)C(=O)NCCC2=CCCCC2)c2ccccc2n1C
→ 22% | -7% | 20% | -3% | 4% | -2.7% | 5% | 12%
> CCCCC1(CC(=O)OC)C(=O)N(c2ccccc2)N(c2ccccc2)C1=O
→ -14% | 6% | -9% | 0% | ? | -6.6% | -2% | -3%
> Cc1ccc(S(=O)(=O)N/N=C/c2cc(Br)ccc2O)cc1
→ -8% | · | 5% | 7% | ? | · | -4% | -9%[46.1 µM]
> Cc1ccc(NC(=O)C2CCCN(S(=O)(=O)c3c(C)noc3C)C2)cc1 (stereo unspecified)
→ · | -1% | -12%&-20% | 3% | -1%&-1%[46.1 µM] | -1.0% | 0% | -2%[46.1 µM]
> O=c1cc(CN2CCN(c3ccccc3O)CC2)nc2sccn12
→ 8% | 3% | -19% | 8% | -6%[46.1 µM] | 1.7% | 5% | 0%
> Cc1cccc(N2C(=O)NC(=O)C3(Cc4cc(C)ccc4N(C)C3)C2=O)c1 (stereo unspecified)
→ 4.5µM* | -6% | -8% | 14% | -9% | 0.8% | 3% | 6%
> Cc1ccc(OC(=O)NC2CCS(=O)(=O)C2)cc1C (stereo unspecified)
→ 4% | 6% | 9% | 13% | 6% | 6.3% | -1% | 26%
> Cc1ccccc1Nc1c([N+](=O)[O-])cncc1[N+](=O)[O-]
→ -37% | · | -10% | -4% | -1%[46.1 µM] | · | -1% | -14%[46.1 µM]
> O=C(NC(=S)Nn1cnnc1)c1ccc(F)cc1Cl
→ -8% | · | -3% | -11% | 24%[46.1 µM] | · | 12% | 17%

2 entries picked at random from those above, as already listed:
Each structure is followed by: NS1 function inh | Cruzain inh noDet | 2A StopGo | RE007 growth inh | Marburg entry inh | Cruzain Triton | SARS PLpro yeast | LASV entry inh
> Cc1cccc(-n2ncc3c(N(CCO)CCO)ncnc32)c1
→ -7% | -2% | 34%[activator] | 7% | · | -2.1% | 4% | ·
> CCOC(=O)CN(c1ccccc1C)S(=O)(=O)c1ccc(Cl)cc1
→ -11% | · | 10% | 8% | 5%[46.1 µM] | · | -5% | 0%[46.1 µM]

More results
Each structure is followed by: NS1 function inh | Cruzain inh noDet | 2A StopGo | RE007 growth inh | Marburg entry inh | Cruzain Triton | SARS PLpro yeast | LASV entry inh
> Cc1nnc(SCC(=O)NCc2cccs2)[nH]c1=O
→ 3% | -2% | · | 1% | 10% | 3.6% | -3% | 2%
> CC(C)Oc1cccc(C(=O)Nc2ccc(Br)cc2F)c1
→ -6% | 6% | 0% | 4% | ? | -6.4% | 3% | 2µM*
> CCCCS(=O)(=O)Nc1ccc2c(c1)ncn2C1CCCCC1
→ -8% | -2% | · | 3% | 3% | 3.2% | 2% | 7%
> Cc1ccn2cc(CNC(=O)c3cccc(C(F)(F)F)c3)nc2c1
→ · | -6% | 6% | · | 2%[46.1 µM] | -2.6% | · | -5%[46.1 µM]
> CC(O)CC(C)O (stereo unspecified)
→ · | -10% | -20% | -14% | · | 4.1% | -3% | ·
> Cc1cc(C)nc(NC(=O)C(C)N2C(=O)c3ccccc3C2=O)n1 (stereo unspecified)
→ 3% | -5% | -14% | 6% | 15% | 0.0% | 1% | 18%
> O=C(CN1C(=O)NC2(CCCC2)C1=O)NCCC1=CCCCC1
→ 4% | -2% | 4% | 15% | -19% | -1.1% | -7% | -1%
> O=C(O)c1ccc(CNC(=S)Nc2ccccc2)cc1
→ 4% | · | -20% | -17% | -2%[46.1 µM] | · | 0% | ?
> CCOc1ccc(NC(=O)CN2CCN(c3ccc(Cl)cc3)CC2)cc1
→ · | 12% | -29% | · | · | -3.6% | · | ?
> O=C1NNC(=O)C2C3C=CC(C4CC34)C12 (stereo unspecified)
→ 6% | -4% | · | 0% | 7% | 1.4% | -4% | 7%
> CCN(CC)CCN(C(=O)CCS(=O)(=O)c1ccccc1)c1nc2cc(OC)c(OC)cc2s1
→ 0% | · | -2% | 20% | -14% | · | 8% | -6%
> O=C(COC(=O)CCC(NC(=O)OCc1ccccc1)C(=O)OCC(=O)Nc1ccccc1)Nc1ccccc1 (stereo unspecified)
→ -38% | -9% | -3% | -8% | 20% | ? | 5% | 5%
> O=C(CN(C(=O)c1csnn1)c1ccc2c(c1)OCCO2)NCc1ccc(F)cc1
→ -17% | · | 29% | -7% | ? | · | 0% | -4%
> COc1ccc(C(=O)Nc2ccc([N+](=O)[O-])cn2)cc1OC
→ -11% | -5% | 22% | -18% | 2% | -5.0% | 17% | 1%
> CCc1ccccc1NC1c2ccccc2C(=O)N1c1cccnc1 (stereo unspecified)
→ -8% | 7% | 13% | -13% | -17%[46.1 µM] | 0.8% | -3% | ?
> Cc1coc2cc3oc(=O)c(CC(=O)N[C@@H](CC(C)C)C(=O)O)c(C)c3cc12
→ 4% | · | -1% | -2% | -14%[46.1 µM] | · | 1% | -12%
> O=C(Nc1cccc(N=Cc2cc(Cl)cc(Br)c2O)c1)c1ccco1
→ -12% | -7% | 6% | 19% | ? | -5.7% | -16% | -6%
> O=C(COC(=O)c1ccccn1)Nc1cccc2ccccc12
→ · | · | -2% | 1% | 14% | · | 2% | -16%
> O=C(O)c1nn(CCOc2ccc(Br)cc2)c(=O)c2ccccc12
→ -23% | · | -22% | 1% | 3%[46.1 µM] | · | 1% | 14%[46.1 µM]
> COc1ccc(C2CC(=O)C3=C(C2)NC(C)=C(C#N)C3c2ccc(N(C)C)cc2)cc1 (stereo unspecified)
→ ? | -11% | -14% | 1% | ? | -0.6% | 11% | 13µM*
> CCCCNc1c(N)n(CCCC)c(=O)[nH]c1=O
→ 4% | 5% | · | · | -26% | -4.2% | 6% | 0%
> Cc1cc(=O)[nH]c(N/N=C/c2ccc3c(c2)OCCO3)n1
→ 2% | · | 70%[activator] | 3% | · | · | -1% | ·
> S=c1[nH]nc(-c2cccs2)n1Cc1ccccc1
→ 10% | · | -8% | -15% | 15%[46.1 µM] | · | 2% | 0%
> CC(NC(=O)N1CCN(c2ccccc2F)CC1)c1ccc(F)c(F)c1 (stereo unspecified)
→ -11% | · | 18% | 1% | -13%[46.1 µM] | · | -4% | -18%[46.1 µM]
